High-throughput results: PubChem, Fisher Drug Discovery Resource Center
NPYLR7 ag: mosquito NPYLR7 agonism; HEK293T NPYLR7/Galpha15, GCaMP6s calcium fluorescence; AID 1259423; activation, % at 10 µM; hit rate 0.15% among 270,000; in the data active means activation above about 40%;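 further: 0% = vehicle and 100% = reference agonist at the receptor; some compounds past the cut are filed as inactive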
NPYLR7 ag max-min: recorded beside NPYLR7 ag, whose call it bears; activation, %; measured here: Max-Min RFU normalised activation; some inactives read as strong as hits;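 span of the calcium signal over five minutes; 0% = vehicle and 100% = native peptide agonist; compound fluorescence can raise it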
Numbers without * were called inactive; & = joins results of further samples. Only part of the results is shown; count on the stated rates, not on these rows.

mol,NPYLR7 ag,NPYLR7 ag max-min
CCOCCCN(CC(=O)N1CCc2sccc2C1c1ccccc1)C(=O)c1ccco1 (stereo unspecified),5,1
O=S(=O)(c1cnn(C2CCOC2)c1)N1CCN(Cc2ccccn2)CC1 (stereo unspecified),-2,488
CC(C)NC(=O)CN1CN(c2ccccc2)C2(CCN(C(=O)COc3ccc(Cl)cc3)CC2)C1=O,24,26
Cc1cccc(CC(C)NC(=O)CCCn2nnnc2CN2CCOCC2)n1 (stereo unspecified),2,1
COc1ccccc1CCCNc1nc(C)nc2c1cnn2C,-1,-3
Cc1cccc(NC(=O)c2c(NC(=O)C(C)C)sc3c2CCCC3)c1,-11,-14
Fc1ccccc1CC1CCN(Cc2cnc(NCC3CCCO3)nc2)CC1 (stereo unspecified),12,8
COc1ccccc1-n1c(SCc2ccc(C(=O)NCc3ccc(F)cc3)cc2)nnc1-c1cccs1,-4,0
COc1nn(C)cc1C(=O)OCc1cc(-c2cc3ccccc3o2)on1,0,0
Cc1nc(SCc2cc(Cl)cc3c2OCOC3)c2c(C)c(C)sc2n1,1,8
O=C(Nc1ccc(Br)cn1)C1CCCN(C(=O)c2ccc3c(c2)COC3)C1 (stereo unspecified),-3,30
Cc1cc2nc(N(Cc3cccnc3)C(=O)c3ccc(C#N)cc3)sc2cc1C,1,-1
COc1nccnc1-c1cc(NC2CCCC2)nc2[nH]ccc12,13,10
Cc1ccsc1CN(C)Cc1cnc(N2CCOCC2)nc1,2,1
COC(=O)c1ccc(C=Cc2ccc3cccc(O)c3n2)cc1,1,6
CCOc1ccccc1NC(=O)N1CCC(Cc2ccc(-c3ccccc3)cc2)CC1,1,8
CCC(C(=O)N(CC(=O)Nc1cc(-c2ccccc2)nn1-c1ccccc1)Cc1ccco1)c1ccccc1 (stereo unspecified),6,12
CCOc1ccc2[nH]c(=S)[nH]c2c1,2,1
Cc1ccnc(SCCCn2c(N3CCC(C)CC3)nc3c2c(=O)[nH]c(=O)n3C)n1,7,12
FC(F)(F)c1nc(N2CCCCC2)c2cnn(-c3ccccc3)c2n1,5&3,4&9
COc1ccc(CCNC(=O)CSCC(=O)N2CCc3ccccc32)cc1,-1,-6
CN(C)CCN(Cc1csc(COc2cc(Cl)ccc2Cl)n1)C(=O)C1CCCC1,3,12
CCSCCNC(=O)c1cc(N2CCN(c3cccc(C(F)(F)F)c3)CC2)nc2ccccc12,22,22
Cc1cc(C(=O)N(C)CCN(C)C2CCCCC2)ccc1N1CCNC1=O,-5,-7
CCN(CC)S(=O)(=O)c1cc(Br)c(C)cc1C,-2,9
Cc1ccc(-n2cc(S(=O)(=O)N3CCCC3)cn2)cc1S(=O)(=O)N1CCCC1,-1,-6
COc1ccc(OC)c2sc(N(Cc3cccnc3)C(=O)c3ccc(C#N)cc3)nc12,-8,-8
Cc1cc(C)n(C2CCN(C(=O)c3cnc4ccccc4c3)CC2)n1,10,10
O=C(c1cnn2c1CCCC2)N(Cc1cccnc1)C1CCNCC1,0,-3
CCc1ccccc1NC(=O)CSc1nccn2nc(-c3ccc(C)cc3)cc12,-1,-4
Cc1noc(C)c1-c1ccc(C(=O)NCCC(F)(F)F)c2occc12,2,-2
Cc1cccc(C2c3[nH]c4ccccc4c3CCN2C(=O)c2nonc2C)n1 (stereo unspecified),4,-8
CC(=O)NC1=NN(C(C)=O)C2(S1)C(=O)N(CCOc1cccc(C)c1)c1c(C)cccc12 (stereo unspecified),3,3
N#CCCN1CCN(S(=O)(=O)c2ccccc2C#N)CC1,3,2
COC(=O)CCC(=O)N(Cc1nc2cc(C)ccc2o1)Cc1ccccc1Cl,0,-5
CCOc1ccc(C2=NC(=Cc3ccccc3C(=O)OC)C(=O)O2)cc1,2,-1
CCN1CCc2c(sc3nc(C)nc(N4CCN(C(=O)c5ccc6c(c5)OCO6)CC4)c23)C1,-3,-2
Cn1cccc(C(=O)Nc2ccc3c(c2)N(C(=O)c2cccs2)CC3)c1=O,1,4
Cn1c(=O)n(Cc2cccc(Cl)c2)c(=O)c2c1nc1oc(C(C)(C)C)cn12,17,19
O=C(COc1cccc(-n2cnnn2)c1)Nc1cccc(Br)c1,7,10
Nc1cc(-c2cnc3ccccc3c2)ccn1,4,4
CC(C)(C)c1cc(N2CCN(C/C=C/c3ccccc3)CC2)nc(SCc2ccc(C(=O)NCC3CCCO3)cc2)n1 (stereo unspecified),8,13
OCCn1ncc2c1CN(c1ccnc3c(C(F)(F)F)cccc13)C2,3,2
Cc1cc(C(=O)N(C)C(C)c2nc(C)sc2C)c2c(C)noc2n1 (stereo unspecified),17,14
CC(C)CN(CC(=O)N(CCc1c[nH]c2ccccc12)Cc1ccc(N(C)C)cc1)C(=O)c1ccc(Cl)cc1,17,11
Cc1cc(N2CCN(Cc3cc4n(n3)CCCNC4)CC2)nc(N)n1,14,10
CCN(CC1COc2ccccc2O1)C(=O)NCc1sccc1C (stereo unspecified),10,4
CCN(CC#CCC(C)OCCC#N)c1ccccc1 (stereo unspecified),0,0
CCOc1nc(-c2ccccc2C)n(-c2ccc(NC(=O)C(C)(C)CCl)cc2)n1,11,21
O=C(O)c1c[nH]c2ccc(C(F)(F)F)cc2c1=O,6,4
CCNC(=O)[C@@H]1C[C@@H](N)CN1C(=O)c1cc(C(F)(F)F)ccc1Cl,-4,-5
O=C(CCC1CCCN(Cc2ccc3nsnc3c2)C1)Nc1ccccc1F (stereo unspecified),8,6
CNC(=O)C1=C(C)Nn2c(nc3scc(-c4ccccc4)c3c2=O)S1,3,2
O=C(O)CCn1c(O)c(C2=c3cc(Br)ccc3=NC2=O)sc1=S,-2,-8
COc1cccc(/C=N\Nc2nnc(C)n2N)c1OCc1ccccc1Cl,-14,-17
CN1C(=S)N(c2ccc(Cl)c(Cl)c2)C(=O)/C1=C\c1cccc(OCCO)c1,24,23
Cc1cc(C)n(-c2n[nH]c(=S)n2N=Cc2ccc(F)cc2)n1,2,3
NC(=O)C1CCN(C(=O)c2cc(=O)c(OCc3ccc(F)cc3)c[nH]2)CC1,-1,-4
COCCCNc1nc2nonc2nc1N(C)Cc1ccc(F)cc1,-6,-8
CCn1cc2c(c1-c1ccc(OC)cc1)c(=O)n(C)c(=O)n2C,11,-1

As entered above:
NPYLR7 ag, `CCN(CC#CCC(C)OCCC#N)c1ccccc1` (stereo unspecified) : 0
NPYLR7 ag, `Cn1c(=O)n(Cc2cccc(Cl)c2)c(=O)c2c1nc1oc(C(C)(C)C)cn12` : 17

Quoted at random: two records from the list
mol,NPYLR7 ag,NPYLR7 ag max-min
OCCn1ncc2c1CN(c1ccnc3c(C(F)(F)F)cccc13)C2,3,2
CCOc1ccc(C2=NC(=Cc3ccccc3C(=O)OC)C(=O)O2)cc1,2,-1

In another format: entries from further up.
Sequence of screens: NPYLR7 ag	NPYLR7 ag max-min
> CC(C)(C)c1cc(N2CCN(C/C=C/c3ccccc3)CC2)nc(SCc2ccc(C(=O)NCC3CCCO3)cc2)n1 (stereo unspecified)
→ 8	13
> Cc1cccc(C2c3[nH]c4ccccc4c3CCN2C(=O)c2nonc2C)n1 (stereo unspecified)
→ 4	-8
> CCN1CCc2c(sc3nc(C)nc(N4CCN(C(=O)c5ccc6c(c5)OCO6)CC4)c23)C1
→ -3	-2
> CCOc1ccc(C2=NC(=Cc3ccccc3C(=O)OC)C(=O)O2)cc1
→ 2	-1
> CC(C)CN(CC(=O)N(CCc1c[nH]c2ccccc12)Cc1ccc(N(C)C)cc1)C(=O)c1ccc(Cl)cc1
→ 17	11
> CCN(CC#CCC(C)OCCC#N)c1ccccc1 (stereo unspecified)
→ 0	0
> Cc1cc(C(=O)N(C)C(C)c2nc(C)sc2C)c2c(C)noc2n1 (stereo unspecified)
→ 17	14

Further records.
mol,NPYLR7 ag,NPYLR7 ag max-min
CC(=NNC(=S)NC(C)C)c1ccccn1,1,8
COc1cn(CC(=O)Nc2ccc(C(F)(F)F)cc2)c(CN2CCC(C)CC2)cc1=O,-1,-2
COc1cc([N+](=O)[O-])ccc1NC(=O)CCSc1ccc(C)cc1,-4,-4
O=C(O)c1cc(-c2cc3ccccc3o2)on1,-2,-5
O=S(=O)(c1ccccc1)N(CC(F)(F)F)c1ccc(C(O)(C(F)(F)F)C(F)(F)F)cc1,7,-1
CC(C(=O)NC1CC1)N1CCc2[nH]nc(C(c3ccccc3)c3ccccc3)c2C1 (stereo unspecified),4,2
COc1ccc(N=C2NN=C(c3ccccc3)CS2)cc1OC,-3,-3
Cc1cc(C)nc(Nc2n[nH]c(-c3ccccc3Br)n2)n1,1,1
C#CCn1c(=NC(=O)CC)sc2cccc(OCC)c21,3,3
COc1cccc(C2CCCN2C(=O)CCn2nnnc2CN2CCOCC2)c1 (stereo unspecified),6,2
CN1CC(=O)N2CCN(C(=O)c3cccc4nccnc34)CC2C1=O (stereo unspecified),9,5
Cc1nccn1C(C)C(=O)N1CCC(c2cc(Cc3ccccc3)[nH]n2)CC1 (stereo unspecified),24,15
CCSC1CCCCN(C(=O)NC(C)c2cnn(C)c2)C1 (stereo unspecified),2,0
Cc1cccc(NC(=O)Nc2ccc(N(C)C)nc2)c1,-2&-3,-2&-5
CC(C)c1ccc(O)c(C(=O)N2CCC(CN3CCOCC3)CC2)c1,-16,-18
CCCCCCCCn1c(NCCC)nc2c1c(=O)[nH]c(=O)n2C,6,3
CCC(C)NC(=O)CN1CN(c2ccccc2)C2(CCN(C(=O)c3ccc(Cl)c([N+](=O)[O-])c3)CC2)C1=O (stereo unspecified),-5,0
CCC(=S)N(CCc1ccc(OC)cc1)C1CC(=O)N(c2ccc(F)cc2)C1=O (stereo unspecified),-5,-12
COc1cc(C)ccc1OCc1cc(C(=O)N(Cc2c(C)nn(C)c2C)C2CC2)no1,4,3
O=C(CSc1nnc(CNC(=O)c2ccco2)n1-c1ccc([N+](=O)[O-])cc1)Nc1cc(C(F)(F)F)ccc1Cl,-9,-7
CCOC(=O)c1cccc(NC(=O)N2CCC(Cc3ccc(C(N)=O)cc3)CC2)c1,2,9
Oc1oc(-c2ccc(Br)cc2)nc1C=Nc1ccc(Br)cc1,-1,-5
COc1ccc(-n2nnnc2CNC(=O)Cc2ccc([N+](=O)[O-])cc2)cc1,6,4
CNS(=O)(=O)c1cc(-c2ccc(NC3CCCC(C)C3C)nn2)ccc1C (stereo unspecified),-11,-17
Clc1cc(Cl)c2nnc(SCc3ccc(Br)cc3)n2c1,4,8
CCC(CC)(CCCNC(=O)C(C)S(C)(=O)=O)C1OCCO1 (stereo unspecified),-1,-4
Cc1nn(-c2ccccc2)c2[nH]cc(C(=O)N3CCc4ccccc43)c(=O)c12,-1,35
O=C(CNC(=O)CNC(=O)c1cccs1)NCC1(N2CCOCC2)CCCCC1,3,8
NC1CC(=O)N(CCc2ccc(F)cc2)C1 (stereo unspecified),-4,-4
O=C(Nc1ccc(F)c(F)c1)c1ccc2nc[nH]c2c1,6,10
CCCn1c(C)cn2c3c(=O)n(CC(C)C)c(=O)n(C)c3nc12,6,1
CCC/C=C/c1ccc(-c2nn[nH]n2)cc1,8,6
Cc1ccc(Cl)cc1Nc1ncccc1C(=O)NCCc1ccccc1F,-13,-19
Cc1cccc(N=Cc2nc(-c3ccccc3)oc2O)n1,-7,-8
Cc1oc(-c2cccc(F)c2F)nc1CN1[C@@H]2CC[C@H]1CC(O)C2 (stereo partly specified),1,0
CCOC(=O)c1sc2nc(C)nc(NC3CCCCC3)c2c1C,-7,-9
COCCCN(CC(=O)Nc1cc(C(C)(C)C)nn1-c1ccccc1Cl)C(=O)c1cc(C(F)(F)F)cc(C(F)(F)F)c1,-2,12
CC(C)NC(=O)Cc1csc(-c2ccsc2)n1,-11,-9
Cn1c(C2CCN(S(C)(=O)=O)CC2)nn(CC(=O)NCc2ccc(F)cc2)c1=O,-2,4
COc1ccccc1OC1CCN(C2CCCNC2)CC1 (stereo unspecified),8,9
COCCOc1ncccc1-c1noc([C@@H]2CCCN2Cc2c[nH]c3ccccc23)n1,-9,-16
COc1ccc(-c2nnc(SC(C)C(=O)N3CCCC3)n2C(C)C)cc1 (stereo unspecified),0,10
CCn1nc(C(=O)N2CCC(N(C)C)C2)cc1-c1cc(C)sc1C (stereo unspecified),11,4
O=C(CNC(=O)C1CC(c2ccc(Cl)cc2)=NO1)NC1CC1 (stereo unspecified),10,23
CN(Cc1ccco1)C(=O)NCCCOc1ccc(F)cc1,5,1
O=C(c1cc(-c2cccnc2)nc2ccccc12)N1CCCC(CO)(Cc2ccccc2)C1 (stereo unspecified),5,5
Cc1ccsc1C(=O)N1CCN(CC(OCc2ccc(C#N)cc2)c2cccc(N3CCCC3)c2)CC1 (stereo unspecified),7,-1
Cc1ccc(C(=O)CSc2nc(N)c(C#N)c(-c3cccs3)c2C#N)c(C)c1,-3,-10
CC(C)(NC(=O)NC1CCc2[nH]c3ccccc3c2C1)c1cccc(C(C)(C)NC(=O)NC2CCc3[nH]c4ccccc4c3C2)c1 (stereo unspecified),2,0
O=C(OCc1nc(C(=O)NC2CCCCC2)cs1)c1ccccc1,-8,-19
O=C(Nc1ccccc1)c1cccc(-n2cc[nH]c2=S)c1,5,-11
CC(NC(=O)c1cc(NC(=O)Nc2ccccc2)ccc1N1CCCC1)c1ccccc1 (stereo unspecified),6,4
O=C(NN1CCOCC1)C1CCCO1 (stereo unspecified),-2,-8
O=C(c1cccc(F)c1)N1CCN(Cc2ccc3c(c2)OCO3)CC1,0,0
COc1cccc2cc(C(=O)NC(C)=O)c(=Nc3ccc(C)cc3)oc12,2,-3
CN(C)c1nc(N)nc(Cn2nnc(-c3ccc4c(c3)OCO4)n2)n1,-6,-4
N=c1ncn(CC(O)CO)c2nc(N3CCOCC3)[nH]c12 (stereo unspecified),-5,-4
CSc1ccc([C@H]2CN3CCC[C@H]3c3ccccc32)cc1,2,-5
